rRNA inh HTS = inhibits bacterial ribosomal RNA function over humanized ribosomes. E. coli WT GFP vs humanized-ribosome RFP mutants, fluorescence, 24 h; active compounds read low; DMSO median 0, no signal -100. GFP signal change (wild-type ribosome), % (test concentration not listed). 1.6% of 350,000 active;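 active means significant combined selectivity score with lowered wild-type GFP, culture density cut under 30%, mutant RFP and density less affected; inactive means any of these conditions unmet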; further: one replicate is shown; some compounds called inactive have numbers as strong as hits
T cruzi repl = blocks replication of Trypanosoma cruzi. T. cruzi beta-gal in NIH3T3, luminescence, 90 h. inhibition, % (test concentration not listed). 1.4% of 300,000 active;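 active means mean inhibition across valid replicates above about 55%, limit read from the data; inconclusive means mean below that limit but half or more replicates reach it; inactive means mean below it, under half of replicates reach it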;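 further: signal also drops with host cell toxicity which is not excluded here; 0% = plate median of DMSO wells and 100% = zero luminescence signal; higher percent means less beta-gal luminescence so fewer parasites; stock transfer was 50 nL into about 50 µL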
RanGTP-Impb inh = inhibitors of RanGTP-importin-beta interaction, primary screen, biochemical, FRET, CFP-Ran, YFP-importin-beta, homogeneous; cell-free CFP-Ran/YFP-importin-beta FRET ratio; inhibition, % (concentration not given with the values); 1.1% of 300,000 active;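 active means most replicates above 15%; inconclusive means exactly half above 15%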;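 further: 0% = DMSO wells and 100% = Ran loaded with GDP instead of GTP; wells of about 40 µL received 100 nL stock; the first replicate is given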
Beta cell apopt = blocks beta cell apoptosis; INS-1E cytokine-induced death, ATP luminescence, 48 h; percent of positive-control rescue, neutral wells zero; protection from apoptosis, % (no concentration beside the values); 0.8% of 300,000 active;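 active means all replicates at 75% or more, or half of them and the mean; inconclusive means half reach 75% but not the mean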;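 further: 0% = cytokine-treated negative control wells and 100% = positive control rescue; higher means more ATP so stronger rescue from cytokine killing; wells of about 40 µL received 100 nL stock; the first replicate is given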
ALR H2O2 inh = human ALR oxidase inhibition via reduced H2O2; P55789; purified ALR, DTT oxidation, H2O2 HRP-luminol luminescence; inhibition, % (concentration not given with the values); 3.8% of 290,000 active; AID 485317;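 active means mean and each replicate at 75% or more; inconclusive means only one of the two met; inactive means neither met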;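 further: stock transfer was 7.5 nL into about 7.5 µL; 0% = neutral wells and 100% = wells with inactivated enzyme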
Target sequence (P55789 whole entry, looked up): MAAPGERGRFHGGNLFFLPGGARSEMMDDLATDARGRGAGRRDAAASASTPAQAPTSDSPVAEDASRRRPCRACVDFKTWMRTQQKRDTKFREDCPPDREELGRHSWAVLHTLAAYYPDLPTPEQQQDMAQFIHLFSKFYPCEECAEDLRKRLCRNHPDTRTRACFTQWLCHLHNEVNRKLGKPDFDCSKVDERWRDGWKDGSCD
FGF22 binding = FGF22 (human) thermal shift binding. AID 651658. recombinant FGF22 thermal shift, SYPRO orange fluorescence; percent of sucrose octasulfate shift, DMSO zero. Q9HCT0. calls only at 9.99 µM. 1.5% of 340,000 active;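 active means melting point raised past a set limit in the mean and every replicate; inconclusive means no clear call; three in four hits are not shown here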
Target sequence (Q9HCT0 whole entry, looked up): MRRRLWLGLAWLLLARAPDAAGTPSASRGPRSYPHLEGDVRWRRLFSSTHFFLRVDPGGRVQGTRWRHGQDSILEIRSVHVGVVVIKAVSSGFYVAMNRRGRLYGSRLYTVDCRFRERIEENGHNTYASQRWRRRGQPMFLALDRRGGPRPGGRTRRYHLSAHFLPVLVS
MLL AF4-AF9 inh = MLL-AF4/AF9 protein interaction inhibition | AlphaScreen, biotin-AF4 peptide binding to FLAG-AF9 | inhibition, % at 10 µM | 0.47% of 350,000 active;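 active means every replicate reaching a set inhibition limit, whatever the replicate mean, cut at about 25% in these data; inconclusive means mean inhibition reaches that limit but some replicates miss it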;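 further: 0% = plate neutral control median and 100% = total signal loss; the record names both 10 and 1 µM as test concentration; the first replicate is given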
Target sequence (P42568 whole entry, looked up): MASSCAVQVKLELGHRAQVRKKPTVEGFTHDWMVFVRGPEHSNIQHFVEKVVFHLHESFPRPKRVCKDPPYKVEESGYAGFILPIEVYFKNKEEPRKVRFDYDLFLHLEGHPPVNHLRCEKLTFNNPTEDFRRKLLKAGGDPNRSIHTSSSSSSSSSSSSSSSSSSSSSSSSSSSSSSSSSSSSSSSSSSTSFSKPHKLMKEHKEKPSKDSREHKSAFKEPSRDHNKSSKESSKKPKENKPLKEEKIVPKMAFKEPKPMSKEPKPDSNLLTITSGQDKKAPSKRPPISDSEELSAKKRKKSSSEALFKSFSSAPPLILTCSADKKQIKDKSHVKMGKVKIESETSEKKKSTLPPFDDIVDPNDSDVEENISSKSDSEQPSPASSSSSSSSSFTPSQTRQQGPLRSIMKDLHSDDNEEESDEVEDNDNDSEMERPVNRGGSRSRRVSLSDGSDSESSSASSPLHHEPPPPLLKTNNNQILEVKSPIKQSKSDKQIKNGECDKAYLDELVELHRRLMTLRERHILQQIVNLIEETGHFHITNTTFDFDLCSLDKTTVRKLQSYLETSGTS
Calb FLC = C. albicans growth modulation with fluconazole. growth inhibition, % (concentration not given with the values). C. albicans CaCi-2 (fluconazole-resistant clinical isolate) + fluconazole, Alamar Blue growth, 48 h. AID 1979. 0.57% of 300,000 active;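 active means most replicates above 75%; inconclusive means exactly half above 75%; inactive means most below 75%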;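 further: all wells also contain fluconazole at 8 µg/ml as a sub-toxic cotreatment; 0% = median of DMSO wells and 100% = median of geldanamycin control wells; wells of about 8 µL received 7.5 nL stock; the first replicate is given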
rRNA inh HTS OD600 = also measured in rRNA inh HTS; calls as there; OD600 change, %; measured here: OD600 growth;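 optical density of the mix in the first replicate; 0 = DMSO median and -100 = no signal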
rRNA inh HTS RFP = further read-out of rRNA inh HTS, marked with its call; RFP signal change, %; measured here: RFP humanized mutant strains;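 first replicate; 0 = DMSO median and -100 = no signal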
An asterisk follows results filed as active; i = inactive; u = inconclusive; x = no result given; + = active, no number.

SMILES	rRNA inh HTS	rRNA inh HTS OD600	rRNA inh HTS RFP	T cruzi repl	RanGTP-Impb inh	Beta cell apopt	ALR H2O2 inh	FGF22 binding	MLL AF4-AF9 inh	Calb FLC
COc1cccc(CNC(=O)CN2C(=O)COc3ccc(S(=O)(=O)N4CCCC4)cc32)c1	-9.1	3.3	22.7	-3.3	0.9	-1.0	-1.3	i	-2.5	1.9
O=C1c2ccccc2C(=O)N1CCCn1c(=O)oc2ccccc21	4.9	-8.4	-5.2	-5.5	-6.4	4.8	-1.1	x	-0.8	15.7
O=C(CSc1ccccn1)Nc1ccc2c(c1)OCO2	8.6	2.5	2.0	10.3	2.1	10.4	-15.8	i	-2.1	-2.3
O=S(=O)(c1ccc2c(c1)OCCO2)N1CCNCC1	19.4	19.5	-0.3	-4.9	-1.2	1.9	-7.0	i	1.8	1.9
O=C1CSC(c2ccc([N+](=O)[O-])cc2)N1c1ccccc1F (stereo not drawn)	6.4	2.3	-1.2	-8.0	-3.6	x	-3.5	i	-0.3	5.6
CCCCCCCC(=O)Oc1ccc(C(=O)Nc2cc(C)on2)cc1	16.8	8.9	5.6	-10.6	-0.4	1.3	-4.7	i	-1.5	12.6
CCC(C)[C@@H](C(=O)NCC1CCC(C(=O)O)CC1)n1nnc2ccccc2c1=O (stereo partly drawn)	x	x	x	-11.0	8.0	-6.3	-0.6	x	x	-0.6
CCc1ccc(NC(=S)N(Cc2cccnc2)Cc2ccco2)cc1	-5.4	-7.0	1.2	x	x	-5.3	-5.4	i	-0.8	-22.6
COc1ccc([N+](=O)[O-])cc1C(=O)Nc1ccc(OCC(=O)N2CCOCC2)cc1	x	x	x	2.8	-2.8	6.3	-13.8	x	x	-1.5
Cc1sc2nc(C3CC3)nc(N3CCN(C(=O)c4ccc(Cl)cc4)CC3)c2c1C	-11.7	-1.9	3.8	37.4	6.0	6.1	-22.9	i	4.1	-12.9
CCc1ccc(C(=O)COC(=O)C2CCN(c3ccc(C(F)(F)F)cn3)CC2)cc1	-0.6	-4.2	-0.2	-5.9	4.7	0.0	7.9	i	0.9	x
O=C(NCc1ccc(F)cc1)NC(=O)c1ccc(Cl)cc1	8.7	14.1	1.0	-16.8	4.1	-8.3	-7.6	i	-0.6	-34.1
Cc1ccccc1C(=O)Nc1ccc(S(=O)(=O)N2CCCC2)cc1	-7.0	-5.7	-1.6	-3.8	2.0	3.6	10.7	i	2.4	-10.7
CNS(=O)(=O)/C=C/c1ccccc1	4.7	6.7	5.8	-12.4	0.6	-3.3	4.1	i	-1.3	-7.8
Cc1c(NC(=O)C(C)OC(=O)c2cccnc2Cl)c(=O)n(-c2ccccc2)n1C (stereo not drawn)	22.6	12.8	-2.6	x	x	0.0	-5.5	i	-4.5	x
CCCCOC(=O)CCN1C(=O)/C(=C2\SC(=S)N(CCC(=O)OCCCC)C2=O)SC1=S	6.2	15.4	0.8	4.0	2.2	-0.4	-4.6	i	5.7	6.4
CCS(=O)(=O)c1ccc2c(c1)N(S(C)(=O)=O)CC(C(=O)NCc1ccccc1OC)O2 (stereo not drawn)	x	x	x	14.3	4.1	-5.8	-8.1	x	x	-0.9
Cc1cc(SCCOc2ccccc2)nc(N)n1	x	x	x	-13.8	0.0	-4.2	0.9	x	x	-3.3
O=c1c2ccccc2[nH]c2ccccc12	2.1	-5.2	-8.1	16.6	19.1*	-1.5	-31.2	i	0.2	-8.2
COc1ccc(OC)c(CN2CCN(C(=O)CCNC(=O)c3ccc(Br)cc3)CC2)c1	3.0	13.9	-0.4	60.3*	3.6	-6.1	-1.8	i	1.8	-3.1
CC1CC(=O)Nc2ccccc2N1C(=O)Nc1ccc(F)cc1F (stereo not drawn)	16.1	8.0	4.3	-0.4	1.7	-9.1	-1.9	i	-1.6	12.9
NC(=O)c1ccccc1OCC(=O)c1ccc(Cl)cc1	-3.0	4.8	-1.4	4.9	2.1	x	4.2	i	-3.9	40.7
CN(C)Cc1cc(CCNC(=O)c2ccc(Cl)cc2)ccc1O	x	x	x	-2.8	-1.8	-4.3	0.2	x	x	-7.4
O=C(Nc1nc2ccccc2[nH]1)c1cccc(S(=O)(=O)N2CCOCC2)c1	x	x	x	7.2	1.4	2.7	-1.0	x	x	-6.1
COC(=O)c1c(C)oc(C)c1S(=O)(=O)Nc1ccc(C(C)C)cc1	-28.4*	-12.4*	-2.2*	-4.9	-1.0	-2.4	1.9	i	0.2	-2.8
CC1CCCC(NC2CCCCNC2=O)C1 (stereo not drawn)	x	x	x	-4.2	1.5	0.6	-5.3	x	x	-10.2
O=C(CN1C(=O)COc2ccccc21)N(Cc1cccnc1)Cc1ccccc1F	-15.9	-12.6	-6.7	75.9*	-0.3	0.7	-3.9	i	9.3	1.2
O=C(CSc1nc2ccccc2c(=O)n1CCCN1CCOCC1)Nc1ccc(Br)cc1	-63.2	-75.8	-17.0	x	x	4.1	-1.2	i	1.9	x
Cc1cccc(C2Nc3ccccc3C(=O)N2NC(=O)c2ccc([N+](=O)[O-])cc2)n1 (stereo not drawn)	x	x	x	13.4	2.7	5.1	-13.6	x	x	3.8
Cc1cc(=O)n2nc(N3CCC(C(=O)NC(C)c4ccccc4)CC3)sc2n1 (stereo not drawn)	x	x	x	1.5	1.0	2.1	-23.7	x	x	-2.0
COc1cccc(/C=N/n2c(N)nc3ccccc32)c1OC	x	x	x	7.6	-4.9	-1.0	-5.4	x	x	-4.9
COc1cccc(CNC(=O)C(c2ccc(Cl)cc2)C(C)C)c1 (stereo not drawn)	x	x	x	12.8	-0.3	-1.1	-0.7	x	x	-4.5
Fc1cccc(F)c1/C=N/N1CCOCC1	11.5	1.4	-1.9	-1.1	-2.0	-9.8	-15.2	i	-2.3	-18.4
N#C/C(=C\N1CCOCC1)S(=O)(=O)c1ccc(Cl)cc1	4.3	3.5	-2.0	-3.9	-0.2	-5.5	-3.4	i	x	-8.9
CN(C)c1cncc(C(=O)O)c1	15.7	6.1	0.1	-2.8	4.3	2.7	-2.0	i	1.4	3.7
O=C(Nc1nccs1)C1CC(=O)N(c2ccc(F)cc2)C1 (stereo not drawn)	6.1	1.3	-0.1	-5.4	-0.1	0.7	-4.9	+	1.3	-9.1
COc1ccc(CNC(=O)CN(Cc2ccco2)C(=O)CCC(=O)Nc2ccccn2)cc1	-2.8	5.8	3.9	-0.3	5.2	-2.1	0.3	i	1.1	23.0
COc1ccccc1-c1cc(C(=O)N2CCc3ccccc3C2)c2ccccc2n1	x	x	x	25.1	2.0	-3.1	x	x	x	-0.2
CC(C)n1c(N2CCN(S(=O)(=O)c3cccc([N+](=O)[O-])c3)CC2)nc2ccccc21	-2.6	1.2	0.5	17.0	4.3	10.8	-23.8	i	2.6	12.8
CCOCc1cn(CC(=O)c2ccc([N+](=O)[O-])cc2)c(C)nc1=N	x	x	x	-3.4	-3.2	8.0	x	x	x	5.0
O=C1N=C(N2CCCC2)CN1c1ccccc1	x	x	x	-10.3	8.4	-0.9	9.7	x	x	-0.8
CN(C)c1ccc(C(=O)OCC(=O)NC2CCCCC2)cc1	x	x	x	-6.9	-3.4	-1.7	-2.9	x	x	0.3
COC(=O)/C(=C\C(=O)c1ccc([N+](=O)[O-])cc1)Nc1ccc(OC)cc1	7.5	5.4	2.4	-12.5	0.9	0.1	-0.9	i	11.0	-0.8
Cc1ccc(C)c(OC(=O)C2CSC3(C)CCC(=O)N23)c1C (stereo not drawn)	x	x	x	x	x	-2.7	0.5	i	0.9	x
O=S(=O)(c1ccc(-n2cnnn2)cc1)N(C1CCCCC1)C1CCCCC1	x	x	x	28.7	0.8	6.5	17.6	x	x	-16.4
COc1ccc(-c2cc(=O)c3cc(OC)ccc3o2)cc1	8.0	16.7	0.1	17.8	u	2.5	-1.4	i	-1.3	1.9
COc1ccc(N2C(=S)N=C(Nc3cccc(C)c3)C23CCCCC3)cc1	-2.9	-14.0	7.5	-12.2	-4.2	2.8	9.5	i	-6.8	u
CC1CC(C)CN(CCCNC(=O)Cn2ncc3c([nH]c4ccccc43)c2=O)C1 (stereo not drawn)	8.4	2.5	-0.9	6.1	5.9	-4.5	-4.2	i	1.5	17.0
CN(CC(=O)Nc1sccc1C(N)=O)S(=O)(=O)c1ccc(Cl)cc1	7.2	8.4	23.0	x	x	-3.0	27.7	i	-5.2	x
CS(=O)(=O)c1ccc2nc(NC(=O)Nc3ccc(Cl)c(Cl)c3)sc2c1	x	x	x	14.4	-3.4	33.4	10.9	x	x	-16.2

Further records follow:
SMILES	rRNA inh HTS	rRNA inh HTS OD600	rRNA inh HTS RFP	T cruzi repl	RanGTP-Impb inh	Beta cell apopt	ALR H2O2 inh	FGF22 binding	MLL AF4-AF9 inh	Calb FLC
COc1ccc(-c2nnc(SCC(=O)Nc3ccccc3)n2C)cc1	x	x	x	-8.3	4.7	-8.4	-3.6	x	x	15.0
COc1ccccc1C(=O)N=c1sc2c(C)ccc(OC)c2n1C	3.5	0.4	-4.5	32.6	3.9	5.5	-2.6	i	-6.8	0.7
COc1ccc(COCC(CC(C)C)N2CCN(C(=O)c3cccc(C(F)(F)F)c3)CCC2=O)cc1 (stereo not drawn)	-27.6	-43.4	-6.3	4.4	-1.3	0.4	-10.5	i	-4.1	-3.1
CC(OC(=O)c1ccc(NC(=O)CC#N)cc1)C(=O)NCCC1=CCCCC1 (stereo not drawn)	10.8	-16.4	-0.2	x	x	6.7	98.4*	i	-0.5	x
Cc1ccc(NC(=O)c2ccc(Cl)cc2Cl)cc1O	-15.6	-6.9	-9.4	6.2	4.4	6.2	x	i	x	1.9
Cc1ccc(CNC(=O)C2CCC(=O)N2C2CCCCC2)cc1 (stereo not drawn)	x	x	x	-19.4	2.1	3.0	-1.8	x	x	6.2
CCc1ccc(S(=O)(=O)/N=C2\C=C(Nc3ccc(O)cc3)C(=O)c3ccccc32)cc1	x	x	x	52.1	u	115.4*	x	x	x	13.4
Cn1c(C(=O)N2CCN(Cc3ccc4c(c3)OCO4)CC2)cc2sccc21	x	x	x	6.7	-0.3	-12.6	-1.9	x	x	-35.2
CCN(CC)S(=O)(=O)c1cccc(C(=O)OC2CCOC2=O)c1 (stereo not drawn)	8.4	18.2	0.6	4.7	4.5	-6.2	0.9	i	-1.3	15.0
O=C(Nc1ccc(F)cc1)Nc1ccc2ccccc2n1	9.4	18.8	-0.8	-15.9	1.0	6.5	5.2	i	-1.4	-1.4
O=C(COc1ccccc1)Nc1cccc(-c2ccc(N3CCOCC3)nn2)c1	-6.8	-0.6	-2.8	0.3	u	23.5	x	i	1.2	6.4
Cc1ccc(C(=O)O/N=C2\CCS(=O)(=O)c3sccc32)cc1	x	x	x	-11.3	8.0	-2.4	-4.1	x	x	-1.0

Source: PubChem (Broad Institute)

An excerpt. The share of hits here may be higher or lower than overall.
